SARS PLP yeast: qHTS of Yeast-based Assay for SARS-CoV PLP; S. cerevisiae expressing SARS-CoV PLpro, growth rescue; control for the full effect not named in the record; Potency, µM (doses to about 32.9 µM), inactives show top-dose activity, positive = growth rescue; 330,000 compounds, 0.19% hits; AID 485353, 2010; active means well fitted rising curve with a large enough effect; inconclusive means small, poorly fitted or top-dose-only effect; inactive means no such curve, though single readings can be large or run the other way; note: 0% is about no effect; nearly all actives have a fitted effect of over 55% in size; growth read by luminescence after 48 h
2A StopGo: High Throughput Screening for Foot and Mouth Disease Virus Antivirals; human cells with a luciferase reporter of 2A StopGo recoding; control for the full effect not named in the record; Potency, µM (top dose mostly 57.9 µM), for the others: top-dose signal change, negative = less light; 410,000 compounds, 1.2% hits; active = well fitted falling curve with a large enough effect; inconclusive = small, poorly fitted or top-dose-only effect; inactive = no such curve, though single readings can be large or run the other way; tested in HEK293T cells; note: % is set by controls: 0 for no effect and ±100 for the full control effect; nearly all actives have a fitted effect of over 45% in size; luciferase light after 4 h
RE007 growth inh: qHTS Assay for Inhibitors of the HIV-1 protein Vpr; AID 651644, 2012; Potency, µM (series often up to 92.2 µM), inactives show top-dose activity change, negative = less growth; 360,000 compounds, 0.21% hits; S. pombe RE007 Vpr strain, BacTiter-Glo ATP luminescence, 24 h; control for the full effect not named in the record; active = well fitted falling curve with a large enough effect; inconclusive = small, poorly fitted or top-dose-only effect; inactive = no such curve, though single readings can be large or run the other way;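 note: % is set by controls: 0 for no effect and ±100 for the full control effect; nearly all actives have a fitted effect of over 50% in size; the assay follows cell death caused by Vpr and the record does not say whether a fall means rescue or toxicity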
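Fission yeast RE007 carrying one integrated HIV-1 vpr copy, seeded at OD 0.01 in PMG+AL medium with 23 nL pinned compound. Grown 24 h at 30 degrees; viability read by BacTiter-Glo luminescence after 5 min.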
The depositor's hits bear a star; ? = inconclusive; & = joins results of further samples; [ ] = another dose, or the depositor's remark. Potency is the fitted concentration of half-maximal effect.

SMILES	SARS PLP yeast	2A StopGo	RE007 growth inh
Cc1csc(NC(=O)c2c(-c3c(F)cccc3Cl)noc2C)n1	5%	-26%	2%
CC(=O)NC1CCN(CC(=O)Nc2cccc([N+](=O)[O-])c2)CC1	-2%	0%	4%
C[C@@]12C(=O)N(Cc3ccco3)CC(=O)N1[C@H]1c3cc(Cl)ccc3OC[C@@H]1[C@@H]2c1ccccc1	0%	-27%	-19%
COC(=O)C1=C(c2ccc(F)cc2OCc2ccccc2)C[C@@H]2CC[C@H]1N2C(=O)NCc1ccc2c(c1)OCO2	-14%	-23%	8%
COc1ccc(C(=O)N2CCC(C(N)=O)CC2)cc1S(=O)(=O)N1CCCC1	?	-3%	5%
COc1ccc(NC(=O)CSc2nc(C)cs2)c(OC)c1	-2%	39%[activator]	14%
Cc1ccc(Cn2c(=O)oc3ccccc32)cc1	3%	-22%	5%
COc1ccc(Cl)cc1NC(=O)CN(C)C(=O)c1cc(C)oc1C	5%	-25%	6%
O=C(COC(=O)C1CC2CCCC(C1)C2=O)c1cccc(Br)c1 (stereo not given)	-4%	-13%	-19%
O=C(NNC(=O)c1cccc(S(=O)(=O)N2CCCCC2)c1)c1ccccc1	2%	-14%	8%
Cc1nn(CC(=O)OCC(=O)NCCc2ccc(F)cc2)c(C)c1[N+](=O)[O-]	-1%	-4%	11%
O=C(NCc1ccco1)C1CCN(C(=O)c2ccc(Cl)cc2)CC1	3%	-22%	-12%
CC(C)(C)NC(=O)CC1C[C@H](C(=O)N2CCCCC2)[C@@]2(CCc3ccccc3)c3[nH]c4ccccc4c3CCN2C1=O (stereo not given in full)	3%	0%	-17%
Cc1ccc(S(=O)(=O)N2CCN(C(=O)c3n[nH]c(=O)c4ccccc34)CC2)c(C)c1	4%	0%	-14%
Cc1ccccc1Cn1nc(C)c(NC(=O)c2cc(-c3ccco3)on2)c1C	0%	-20%	-12%
CCOc1ccc(C(C)NC(=O)c2ccc3c(c2)NC(=O)C(C)S3)cc1OCC (stereo not given)	-2%	?	2%
CCCCC(=O)Nc1ccccc1Oc1ccccc1	0%	17%	-10%
CC(C)NC(=O)Nc1cccc2c1O[C@H](CN(C)C(=O)NC(C)C)[C@@H](C)CN([C@H](C)CO)C2=O	2%	-6%	8%
CCN(CC)C(=O)c1[nH]cnc1C(=O)NCc1ccccc1	1%	4%	4%
c1ccc(-c2ccncc2)nc1	5%	5%	8%
C[C@H](CO)N1C[C@H](C)[C@@H](CN(C)C(=O)Nc2ccc(C(F)(F)F)cc2)Oc2ccc(NC(=O)Cn3cnnn3)cc2C1=O	1%	-10%	0%
C[C@@H](N)C(=O)NC[C@H]1O[C@@H](n2cnc3c(N)ncnc32)[C@H](O)[C@@H]1O	-11%	-12%	-5%
O=C(NNC(=O)c1ccc(Br)s1)c1cccc(S(=O)(=O)N2CCCC2)c1	-3%	-27%	-13%
Cc1ccc(S(=O)(=O)N2CCCN(C(=O)c3ccc(-n4cccn4)cc3)CC2)cc1	-1%	-27%	-8%
COC(=O)[C@@]12CCCCN1[C@H](c1ccc(-c3ccccc3)c(OC)c1)[C@H]1C(=O)N(C)C(=O)[C@H]12	3%	?	6%
Continued:
SMILES	SARS PLP yeast	2A StopGo	RE007 growth inh
CCN(CC(=O)Nc1ccc(NC(C)=O)cc1)C(=O)C1CCCN(C(=O)c2ccc(Cl)cc2)C1 (stereo not given)	-1%	1%	3%
CCOc1ccc(CCNC(=O)c2ccc(C)c(N3CCCC3=O)c2)cc1OCC	5%	-8%	13%
N#CCc1nn(-c2ccc(F)cc2)c(N)c1C#N	0%	-3%	7%
COc1ccc(OC)c(/C=N/NC(=O)c2ccc[n+](CC(=O)c3ccccc3)c2)c1	-7%	-10%	-17%
CCC(C)(C)C1CCc2[nH]nc(C(=O)NCCCNC(=O)OC(C)(C)C)c2C1 (stereo not given)	-1%	?	3%
COc1ccccc1CCNC(=O)CCNS(=O)(=O)c1ccc(NC(C)=O)cc1	0%	-9%	-7%
CC(C)c1ccc(S(=O)(=O)N2CCN(C(=O)C3=COCCO3)CC2)cc1	-2%	?	2%
COCCNc1nc(Cl)c(C#N)s1	-1%	0%	-7%
CN(C)C1(CNC(=O)c2cccc(S(=O)(=O)NCc3ccccc3)c2)CCCCC1	1%	-2%	5%
CCOc1cc(N2CCOCC2)c(OCC)cc1NC(=O)c1ccc2ncsc2c1	1%	-11%	3%
Cc1ccc(N=Nc2ccc(O)c3ncccc23)cc1C	9%	41%[activator]	4%
C=CCN(c1ccc(F)cc1)S(=O)(=O)c1cc(C(=O)NC2CCC(O)CC2)ccc1Cl (stereo not given)	-3%	-7%	-5%
COc1ccc(Cl)cc1NC(=O)COC(=O)C1COc2ccccc2O1 (stereo not given)	-8%	-19%	12%
Cc1nn(CC(=O)NNC(=O)c2ccc(Br)cc2)c(C)c1[N+](=O)[O-]	7%	-15%	3%
O=[N+]([O-])c1ccc(C(O)C23CN4CN(CN(C4)C2)C3)cc1 (stereo not given)	0%	-8%	22%
COC(=O)c1ccccc1NC(=S)N1CCN(C2CCCCC2)CC1	-2%	4%	-2%
Cc1ccccc1Nc1nc(N)nc(CSc2nnnn2C)n1	-7%	71%[activator]	-9%
O=C(Nc1ccc(F)c(F)c1)c1ccc(-n2cncn2)c([N+](=O)[O-])c1	-8%	-14%	5%
CCOc1cc(N2CCOCC2)c(OCC)cc1NC(=O)COc1cccc(CC)c1	-2%	-21%	-6%
COC(=O)C1=C(c2ccc(OC(F)(F)F)cc2)C[C@@H]2CC[C@H]1N2C(=O)N1CCC(C)CC1	-7%	?	15%
O=C(Cn1ccnc1)c1ccc(O)c(O)c1	0%	-13%	1%
CCCCC(c1nnnn1CC1CCCO1)N1CCN(c2ccccc2)CC1 (stereo not given)	0%	9%	5%
COc1ccc(S(=O)(=O)Nc2ccc3c(c2)C(=O)N([C@@H](C)CO)C[C@H](C)[C@H](CN(C)CC2CC2)O3)cc1	-1%	-1%	-11%
CCCCCCCCCCC[C@@H](C[C@@H]1OC(=O)[C@H]1CCCCCC)OC(=O)[C@H](CC(C)C)NC=O	2%	-23%&12%	9%
CCOC(=O)C1=CN(CC)S(=O)(=O)NC1c1ccccc1 (stereo not given)	4%	0%	-12%

Shown comma-delimited: entries from further up
structure,SARS PLP yeast,2A StopGo,RE007 growth inh
CC(C)c1ccc(S(=O)(=O)N2CCN(C(=O)C3=COCCO3)CC2)cc1,-2%,?,2%
COCCNc1nc(Cl)c(C#N)s1,-1%,0%,-7%
CN(C)C1(CNC(=O)c2cccc(S(=O)(=O)NCc3ccccc3)c2)CCCCC1,1%,-2%,5%
CCOc1cc(N2CCOCC2)c(OCC)cc1NC(=O)c1ccc2ncsc2c1,1%,-11%,3%
Cc1ccc(N=Nc2ccc(O)c3ncccc23)cc1C,9%,41%[activator],4%
C=CCN(c1ccc(F)cc1)S(=O)(=O)c1cc(C(=O)NC2CCC(O)CC2)ccc1Cl (stereo not given),-3%,-7%,-5%
COc1ccc(Cl)cc1NC(=O)COC(=O)C1COc2ccccc2O1 (stereo not given),-8%,-19%,12%
Cc1nn(CC(=O)NNC(=O)c2ccc(Br)cc2)c(C)c1[N+](=O)[O-],7%,-15%,3%
O=[N+]([O-])c1ccc(C(O)C23CN4CN(CN(C4)C2)C3)cc1 (stereo not given),0%,-8%,22%
COC(=O)c1ccccc1NC(=S)N1CCN(C2CCCCC2)CC1,-2%,4%,-2%
Cc1ccccc1Nc1nc(N)nc(CSc2nnnn2C)n1,-7%,71%[activator],-9%
O=C(Nc1ccc(F)c(F)c1)c1ccc(-n2cncn2)c([N+](=O)[O-])c1,-8%,-14%,5%
CCOc1cc(N2CCOCC2)c(OCC)cc1NC(=O)COc1cccc(CC)c1,-2%,-21%,-6%
COC(=O)C1=C(c2ccc(OC(F)(F)F)cc2)C[C@@H]2CC[C@H]1N2C(=O)N1CCC(C)CC1,-7%,?,15%
O=C(Cn1ccnc1)c1ccc(O)c(O)c1,0%,-13%,1%

(list continues)
SMILES	SARS PLP yeast	2A StopGo	RE007 growth inh
O=C(NC1CCN(Cc2ccccc2)CC1)c1cccc(S(=O)(=O)Nc2ccc(F)cc2)c1	0%	-20%	-6%
COc1ccc(-c2nc3cnccn3c2NCc2ccccc2)cc1SC1CCCCC1	0%	?	-2%
Cc1cc(C)n2nc(C(=O)OCC(=O)c3c[nH]c4ccccc34)nc2n1	0%	3%	-5%
C[C@H](CO)N1C[C@H](C)[C@@H](CN(C)C(=O)Nc2ccccc2)Oc2c(NS(=O)(=O)c3ccccc3)cccc2C1=O	0%	67%[activator]	-17%
O=c1oc(-c2ccc([N+](=O)[O-])cc2)nc2ccccc12	0%	28%	-15%
CC[C@]12c3[nH]c4ccccc4c3CCN1C(=O)C(CC(=O)NCCCn1ccnc1)C[C@@H]2C(=O)N1CCN(C(=O)c2ccco2)CC1 (stereo not given in full)	-5%	-16%	-16%
CCOc1ccc(S(=O)(=O)N2CCCCC2)cc1NC(=O)Cc1ccccc1	0%	-25%	10%
Cc1cc(C)cc(C(=O)NCC(=O)NNC(=O)CSc2ccccc2F)c1	-6%	-6%	6%
Cc1cccc(N2CCN(C(=O)CNC(=O)Cc3ccccc3)CC2)c1C	-11%	-15%	0%
Cc1ccc(NS(=O)(=O)c2ccc(C)c(C(=O)NCC(c3ccccc3)N(C)C)c2)cc1 (stereo not given)	3%	32%[activator]	-9%
COc1ccc2[nH]c(C)c(CCNCc3cccnc3)c2c1	-5%	-17%	5%
O=C(CCn1c(=S)oc2ccccc21)Nc1ccc(F)cc1	1%	10%	-7%
COc1ccc(CNC(=O)CCn2c(=O)oc3ccccc32)c(OC)c1	-1%	6%	9%
O=C(OCC(=O)N1CCCCC1)c1ccc2ccccc2n1	-2%	20%	-6%
O=C(CNC(=O)C12CC3CC(CC(C3)C1)C2)Nc1ncccc1O	-1%	4%	7%
CC1CCN(C(=O)c2[nH]cnc2C(=O)Nc2cccc(Cl)c2)CC1	-4%	44%[activator]	7%
CCN1CCN(C(=S)Nc2cc(C(=O)OC)ccc2C(=O)OC)CC1	0%	22%	-22%
COc1ccccc1NS(=O)(=O)c1ccc(C(=O)N2CCCC(C(F)(F)F)C2)cc1 (stereo not given)	-7%	-29%	4%
COc1ccc(OCCOC(=O)c2ccc(F)c(S(=O)(=O)N3CCOCC3)c2)cc1	-3%	?	-1%
CCOC(=O)C1=CC[C@H]2c3c(c4ccccc4n3C)C(=O)C1N2Cc1ccccc1	3%	12%	-6%
CC(C)(C)OC(=O)NCCCCCc1cn(CC(=O)NCCCCCCCCCCC(=O)N2CCN(C(=O)OC(C)(C)C)CC2)nn1	-2%	-8%	19%
O=C(CN1CCSC1=O)N1CCN(S(=O)(=O)c2ccccc2)CC1	-2%	-15%	-1%
C[C@H](CO)N1C[C@H](C)[C@@H](CN(C)C(=O)Nc2ccccc2)Oc2ccc(NC(=O)c3ccncc3)cc2C1=O	-10%	22%	-1%
COc1ccc(-c2cnnc(N/N=C/c3ccc(-c4ccc([N+](=O)[O-])cc4)o3)n2)cc1	0%	-27%	0%
CCOc1ncccc1C(=O)OCC(=O)c1ccccc1Br	0%	9%	-12%
Next part
SMILES	SARS PLP yeast	2A StopGo	RE007 growth inh
O=C(c1ccc(S(=O)(=O)NCc2ccco2)cc1)N1CCN(c2ccc(F)cc2)CC1	-3%	13%	-3%
CSCCC(NC(=O)c1ccco1)C(=O)N1CCN(c2ccccc2O)CC1 (stereo not given)	1%	-8%	-2%
CC[C@]12c3[nH]c4cc(CCC(=O)N(C)C)ccc4c3CCN1C(=O)[C@@H](CC(=O)NCC13CC4CC(CC(C4)C1)C3)C[C@@H]2C(=O)N1CCN(C(=O)C2CC2)CC1	-9%	-17%	12%
c1ccc(C[C@H]2CNCCN2CC2(c3ccccc3)CC2)cc1	-11%	-6%	11%
O=C(Cn1nnc(-c2ccccc2)n1)NCC(=O)Nc1ccc(F)c(F)c1F	0%	9%	15%
COc1cc(N(Cc2ccccc2)Cc2ccccc2)c2ncn(C(C)C)c2c1	2%	-20%	2%
Cc1cccc(C(=O)O[C@H]2[C@H](C)NS(=O)(=O)[C@H]3CC4C=C[C@]23O4)c1	21%	-2%	-6%
CN(CCc1ccccc1)C(=O)c1ccc(NC(=O)Cc2ccc([N+](=O)[O-])cc2)cc1	1%	-28%	11%
O=C(N[C@H]1C/C=C\C[C@H](CC(=O)N(CCO)Cc2ccccc2)C(=O)N[C@H](Cc2c[nH]c3ccccc23)COC1=O)OCC1c2ccccc2-c2ccccc21	3%	-26%	4%
CC(C)N=C1CC(C)(C)CC(=O)/C1=C(/O)CCCN1C(=O)c2ccccc2C1=O	-1%	1%	1%

Screening results (PubChem BioAssay)

An excerpt; rates above refer to the full screens.
